NS1 inh = inhibitors of influenza NS1 protein function; S. cerevisiae slowed by influenza A NS1, growth recovery by OD600; Potency, µM (top dose mostly 46.1 µM), without a hit: at the top dose activity, positive = more growth; 270,000 compounds, 0.4% hits; active means well fitted rising curve with a large enough effect; inconclusive means small, poorly fitted or top-dose-only effect; inactive means no such curve, though single readings can be large or run the other way; further: nearly all actives have a fitted effect of over 50% in size
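S. cerevisiae expressing influenza A NS1, grown in glucose, washed, then diluted 1:100 into pH 6.0 -URA galactose medium with 23 nl compound. Growth recovery read as OD600; NS1-free strain serves as control.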
MARV entry inh = Marburg virus entry inhibition | Marburg virus pseudotyped entry inhibition, cell reporter; control for the full effect not named in the record; about a third of the inactives were read at about 46 µM | Potency, µM (titrated, usually from 37.8 µM), without a hit: at the top dose activity change, negative = inhibition, actives largely listed as inhibitors | 300,000 compounds, 1.8% hits | AID 540276; active = well fitted inhibition curve with a large enough effect; inconclusive = small, poorly fitted or top-dose-only effect, or effect the other way; inactive = flat fitted curve, though single readings scatter; tested in HEK293 cells; about a fifth of its hits are not listed in these tables; further: on the % scale 0 is the no-effect control and ±100 the full control effect; luciferase read-out
SARS PLP yeast = inhibitors of SARS-CoV papain-like protease in yeast | S. cerevisiae expressing SARS-CoV PLpro, growth rescue; control for the full effect not named in the record | Potency, µM (top dose mostly 32.9 µM), inactives show top-dose activity, positive = growth rescue | 330,000 compounds, 0.19% hits | AID 485353; active means well fitted rising curve with a large enough effect; inconclusive means small, poorly fitted or top-dose-only effect; inactive means no such curve, though single readings can be large or run the other way; further: 0% is about no effect; nearly all actives have a fitted effect of over 55% in size; growth read by luminescence after 48 h
2A StopGo = lowers the luciferase signal of an FMDV 2A StopGo reporter; human cells with a luciferase reporter of 2A StopGo recoding; control for the full effect not named in the record; Potency, µM (series often up to 57.9 µM), without a hit: top-dose signal change, negative = less light; AID 1159524; 410,000 compounds, 1.2% hits; active = well fitted falling curve with a large enough effect; inconclusive = small, poorly fitted or top-dose-only effect; inactive = no such curve, though single readings can be large or run the other way; tested in HEK293T cells; further: on the % scale 0 is the no-effect control and ±100 the full control effect; nearly all actives have a fitted effect of over 45% in size; luciferase light after 4 h
RE007 growth inh = less growth of the S. pombe RE007 Vpr strain; 360,000 compounds, 0.21% hits; S. pombe RE007 Vpr strain, BacTiter-Glo ATP luminescence, 24 h; control for the full effect not named in the record; AID 651644; Potency, µM (highest dose often 92.2 µM), inactives show top-dose activity change, negative = less growth; active = well fitted falling curve with a large enough effect; inconclusive = small, poorly fitted or top-dose-only effect; inactive = no such curve, though single readings can be large or run the other way;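 further: on the % scale 0 is the no-effect control and ±100 the full control effect; nearly all actives have a fitted effect of over 50% in size; the assay follows cell death caused by Vpr and the record does not say whether a fall means rescue or toxicity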
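Fission yeast strain RE007, carrying one chromosomally integrated HIV-1 vpr copy, was seeded at OD 0.01 in PMG+AL medium with 23 nL pinned compound. After 24 h at 30 °C and 99% humidity, viability was read by BacTiter-Glo luminescence.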
LASV entry inh = inhibitors of Lassa virus binding or cell entry; Lassa virus pseudotype entry inhibition, cell reporter; control for the full effect not named in the record; Potency, µM (highest dose often 37.9 µM), for the others: at the highest dose activity change, negative = inhibition, actives largely listed as inhibitors; 300,000 compounds, 1.2% hits; AID 540256; active means well fitted inhibition curve with a large enough effect; inconclusive means small, poorly fitted or top-dose-only effect, or effect the other way; inactive means flat fitted curve, though single readings scatter; tested in HEK293 cells; further: on the % scale 0 is the no-effect control and ±100 the full control effect; nearly all actives have a fitted effect of over 50% in size; luciferase read-out
Cruzain inh Det = inhibitors of Trypanosoma cruzi cruzain with detergent; AID 1478; P25779; 200,000 compounds, 0.43% hits; Potency, µM, for the others: max response, negative = inhibition, hits mostly inhibitors; purified cruzain, Z-FR-AMC fluorescence, 0.01% Triton;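 further: plate controls were neutral wells for no effect and buffer without enzyme for full effect; nearly all actives have a fitted effect of over 40% in size; top concentration of the series not given in the record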
Target sequence (P25779 123-467 limits assumed): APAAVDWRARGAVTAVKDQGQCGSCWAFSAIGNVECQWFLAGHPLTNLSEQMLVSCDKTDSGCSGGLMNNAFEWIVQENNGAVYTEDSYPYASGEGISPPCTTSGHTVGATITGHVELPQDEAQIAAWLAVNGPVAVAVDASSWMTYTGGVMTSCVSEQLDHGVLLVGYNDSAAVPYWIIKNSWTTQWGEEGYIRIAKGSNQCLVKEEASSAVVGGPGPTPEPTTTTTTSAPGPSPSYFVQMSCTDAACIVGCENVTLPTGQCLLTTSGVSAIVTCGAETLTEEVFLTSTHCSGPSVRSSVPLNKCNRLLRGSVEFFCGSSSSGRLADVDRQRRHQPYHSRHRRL
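Enzyme 1.5 nM, Z-FR-AMC 2 uM, NaOAc 100 mM pH 5.5, DTT 5 mM, Triton X-100 0.01%; 15 min RT compound preincubation; kinetic ex360/em450, 60 s delta.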
Cruzain inh noDet = blocks cruzain activity in detergent-free assay | P25779 | purified cruzain, Z-FR-AMC fluorescence, no detergent | Potency, µM, without a hit: max response, negative = inhibition, hits mostly inhibitors | 200,000 compounds, 2.3% hits | AID 1476;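 further: plate controls were enzyme without inhibitor for no effect and buffer without enzyme for full effect; nearly all actives have a fitted effect of over 40% in size; top concentration of the series not given in the record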
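Detergent-free condition (0.00005% Triton X-100) in acetate buffer pH 5.5 with DTT. 1.5 nM enzyme and compound were pre-mixed 15 min, then 2 uM Z-FR-AMC substrate added; reaction progress from fluorescence change between first and third reads (60 s).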
An asterisk follows results filed as active; ? = inconclusive; . = not tested or not shown; & = joins results of further samples; [ ] = another dose, or the depositor's remark. Unless noted, the call rests on the fitted dose curve; in most records, active means well fitted curve in the direction sought with a large enough effect; inconclusive means small, poorly fitted or top-dose-only effect, or another doubt; inactive means no such curve, though single readings can be large; an effect the other way counts as inactive or inconclusive. Potency means the concentration at half of the fitted maximal effect. Rows are unselected; 4.7% or so of the library scored in one or more.

Structure	MARV entry inh	Cruzain inh Det	2A StopGo	LASV entry inh	NS1 inh	RE007 growth inh	SARS PLP yeast	Cruzain inh noDet
CN1C(=O)CC(NNC(=O)c2ccc(Cl)cc2)C1=O (stereo not given)	0%	-0.3%	1%	29%	-3%	4%[3.69 µM]	-2%	-1%
Cc1oc(C(C)(C)C)cc1C(=O)Nc1ccc(N2CCOCC2)cc1	2%	.	-14%	-9%	5%	1%	0%	.
COc1ccc(CCCC(=O)N/N=C\c2cccs2)cc1	?	.	-6%	9%[46.1 µM]	.	4%	-5%	.
CC(=O)c1cccc(S(=O)(=O)NCC2CCCCC2)c1	?	-3.4%	35%[activator]	1%	2%	-3%	19%	4%
Cc1cccc(OCC(=O)Nc2ccc(NC(=O)c3ccccc3)cc2)c1	-22%	.	3%	-5%	-4%	9%	1%	.
COc1ccc(C(CNC(=O)CSc2ccccc2C)N(C)C)cc1 (stereo not given)	-23%[46.1 µM]	.	-9%	-4%	?	14%	27%	.
c1ccc2c(Nc3nc4c(s3)CCCC4)cccc2c1	?	-7.2%	34%[activator]	2%	-55%	-19%	-25%	?
O=C(CNS(=O)(=O)c1ccc(Br)cc1)OCc1cc(=O)n2cc(Br)ccc2n1	-2%	-8.0%	.	13%	-27%	.	4%	-30%
O=C(Cc1ccccc1)Nc1sc2c(c1C(=O)Nc1ccc(Br)cc1)CCCC2	.	-1.7%	1%	-8%[46.1 µM]	.	.	.	-17%
COc1ccc(CC(=O)NNC(=O)c2cc(C)[nH]n2)cc1	7%	.	-3%	-2%	-7%	-1%	5%	.

In another format: results already given.
The line under a structure holds: MARV entry inh, Cruzain inh Det, 2A StopGo, LASV entry inh, NS1 inh, RE007 growth inh, SARS PLP yeast, Cruzain inh noDet
COc1ccc(C(CNC(=O)CSc2ccccc2C)N(C)C)cc1 (stereo not given)
 : -23%[46.1 µM], ., -9%, -4%, ?, 14%, 27%, .
c1ccc2c(Nc3nc4c(s3)CCCC4)cccc2c1
 : ?, -7.2%, 34%[activator], 2%, -55%, -19%, -25%, ?
O=C(CNS(=O)(=O)c1ccc(Br)cc1)OCc1cc(=O)n2cc(Br)ccc2n1
 : -2%, -8.0%, ., 13%, -27%, ., 4%, -30%
O=C(Cc1ccccc1)Nc1sc2c(c1C(=O)Nc1ccc(Br)cc1)CCCC2
 : ., -1.7%, 1%, -8%[46.1 µM], ., ., ., -17%
COc1ccc(CC(=O)NNC(=O)c2cc(C)[nH]n2)cc1
 : 7%, ., -3%, -2%, -7%, -1%, 5%, .

Other structures follow.
Structure	MARV entry inh	Cruzain inh Det	2A StopGo	LASV entry inh	NS1 inh	RE007 growth inh	SARS PLP yeast	Cruzain inh noDet
CCOC(=O)C1CCCN(c2c(NCCCN3CCCC(C)C3)c(=O)c2=O)C1 (stereo not given)	.	5.5%	-11%	.	-3%	3%	-4%	0%
Cc1cccc(NC(=O)Cn2c(=O)n(CC3CCCO3)c(=O)c3ccccc32)c1 (stereo not given)	5%[46.1 µM]	.	0%	-16%[46.1 µM]	-4%	27%	-1%	.
CC(=O)c1ccc(Oc2cc(C(F)(F)F)cnc2C(N)=O)cc1	-1%[46.1 µM]	.	-12%	1%	.	-6%	2%	.
Cc1ccc(NC(=S)N(CCN2CCCCC2)Cc2ccco2)cc1C	?	.	11%	?	-8%	2%	-2%	.
Fc1cccc(-c2cc3nc4c(c(N5CCOCC5)n3n2)CCCC4)c1	?	-16%	56%[activator]	-3%	-75%	2%	-16%	15%
CC(C)C1=C2CCCCC2NC(=O)N1 (stereo not given)	-3%&-3%	1.3%	.	0%	-6%	12%	0%	11%
CN1CCN(NC(=S)Nc2ccccc2)CC1	8%[46.1 µM]	.	-6%	?	.	-1%	4%	.
COc1ccccc1P(=O)(Cc1ccccc1)c1ccccc1 (stereo not given)	?	.	7%	12%[46.1 µM]	-2%	-4%	0%	.
COc1ccc(C)cc1N(CC(=O)Nc1ccc(S(=O)(=O)N2CCOCC2)cc1)S(C)(=O)=O	-11%[46.1 µM]	.	1%	-17%	-12%	-2%	-1%	.
CC1=C(C(=O)OC(C)C)C(C)C(C(=O)OC(C)C)=C(C)N1	?	-14%	?	-21%	-102%	-18%	2%	?
COc1ccc2c(c1)CC[C@@H]1[C@@H]2CC[C@]2(C)C(=O)CC[C@@H]12	7%	-3.4%	-9%	-12%	12%	4%[18.4 µM]	-44%	-10%
Cc1ccc2nc(N3CCC(C(=O)NC4CCCCC4)CC3)sc2c1	.	.	-17%	.	-20%	-6%	1%	.
CC(C)Oc1ccc(C2NC(=O)NC2=O)cc1 (stereo not given)	5%	3.8%	10%	12%	8%	2%	5%	-4%
Cc1ccc(N2CC(NS(=O)(=O)c3cccnc3)CC2=O)cc1C (stereo not given)	-2%[46.1 µM]	.	-1%	-3%	.	1%	-3%	.
CCOc1ccccc1NC(=O)CN1CCN(S(=O)(=O)c2ccc(Br)cc2)CC1	.	0.3%	8%	?	.	.	.	-15%
CCc1ccc(OCC2c3cc(OC)c(OC)cc3CCN2C(C)=O)cc1 (stereo not given)	.	.	?	.	6%	0%	-1%	.
CC(C)CN(CC(C)C)C(=O)CN1C(=O)NC2(CCc3ccccc3C2)C1=O (stereo not given)	.	.	-4%	.	0%	2%	0%	.
CCOC(=O)N1CCN(C(=O)COc2cccc3c2CCN(Cc2ccc(F)cc2)C3=O)CC1	?	1.1%	14µM*	-12%	0%	6%	-1%	?
Cc1ccc(S(=O)(=O)N2CCOCC2)cc1NC(=O)COC(=O)CNC(=O)c1ccccc1	12%	-26%	-3%	16%	5%	1%	8%	?
COc1ccc(C2C(=O)N(C3CCC(C)CC3)CC(=O)N2Cc2ccccc2Cl)cc1OC (stereo not given)	.	-0.4%	-5%	0%[46.1 µM]	.	.	.	13%

Full records, looked up by structure. Order of screens: MARV entry inh	Cruzain inh Det	2A StopGo	LASV entry inh	NS1 inh	RE007 growth inh	SARS PLP yeast	Cruzain inh noDet
COc1ccc2c(c1)CC[C@@H]1[C@@H]2CC[C@]2(C)C(=O)CC[C@@H]12 as listed: 7%	-3.4%	-9%	-12%	12%	4%[18.4 µM]	-44%	-10%
Cc1ccc(N2CC(NS(=O)(=O)c3cccnc3)CC2=O)cc1C (stereo not given) as listed: -2%[46.1 µM]	.	-1%	-3%	.	1%	-3%	.

Following part.
Structure	MARV entry inh	Cruzain inh Det	2A StopGo	LASV entry inh	NS1 inh	RE007 growth inh	SARS PLP yeast	Cruzain inh noDet
CN(C(=O)CN1CCC(NC(=O)C2CCCCC2)CC1)C1CCCCC1	3%	3.7%	0%	-4%	-1%	-1%	-1%	-6%
COc1cc(/C=N/NC(=O)CN2CCOCC2)ccc1OCc1ccccc1	?	-3.1%	-2%	12%	-28%	-7%	-5%	-7%
Cc1cc(C)cc(NC(=O)C2CCN(S(=O)(=O)c3cn(C)cn3)CC2)c1	.	0.9%	-9%	2%[46.1 µM]	.	.	.	17%
CC1CC(=O)C(C2c3ccccc3CCN2C(=O)CCl)C(=O)C1 (stereo not given)	37%	1.9%	4%	-4%	5%	-1%	-6%	-4%
Cn1c(N)c(C(=O)COC(=O)c2cccnc2Cl)c(=O)n(C)c1=O	14%[46.1 µM]	.	-5%	0%	.	0%	-2%	.
Cc1ccc2oc(C(=O)N(Cc3ccncc3)CC3CCCO3)c(C)c2c1 (stereo not given)	-18%	.	19%	4%	-22%	-10%	3%	.
CC(=O)Nc1ccc(S(=O)(=O)Nc2nc3n(n2)C(c2ccccc2)CC(=O)N3)cc1 (stereo not given)	?	-2.1%	-5%	1%	12%	13%	0%	-3%
COc1cc(OC)nc(Oc2ccccc2C(=O)Oc2ccc(C)cc2)n1	-3%	-3.8%	.	-6%	-65%	-7%	-28%	3%
CCOc1ccc(C(=O)Nc2ccc(S(=O)(=O)Nc3nccc(C)n3)cc2)cc1OCC	9%[46.1 µM]	.	8%	25%[46.1 µM]	7%	0%	4%	.
Cc1c(S(=O)(=O)Nc2ccc3c(c2)OCCO3)c(=O)n(C)c(=O)n1C	.	2.2%	0%	.	0%	14%	0%	-10%
O=S1(=O)c2ccccc2N(Cc2ccccc2)c2ccccc21	.	-0.4%	-9%	11%[46.1 µM]	.	.	.	-12%
CCC(=O)Nc1nc2n(n1)C(c1ccc(OC)cc1)C=C(c1ccccc1)N2 (stereo not given)	.	-0.5%	.	.	10%	.	8%	2%
O=C(CCc1nnc(-c2ccccc2)o1)NCc1cc(F)ccc1F	9%[46.1 µM]	.	15%	4%[46.1 µM]	1%	11%	1%	.
Cc1ccc(/C=N/NC(=O)CNC(=O)c2ccc(S(=O)(=O)N(C)C)cc2)cc1	5%[46.1 µM]	.	-10%	-7%	.	7%	-2%	.
O=C(Cn1nnc(-c2ccc(S(=O)(=O)N3CCCC3)cc2)n1)Nc1ccccc1-n1cccc1	2%&-7%	4.2%	?	0%	-32%	12%	-1%	-10%
CN1C(=O)N(C)C2(c3ccccc3)NC(=O)NC12c1ccccc1 (stereo not given)	4%	1.2%	-20%	3%	1%	4%	-1%	3%
O=C(Cn1ncc2c([nH]c3ccccc32)c1=O)NCCc1ccc(Cl)cc1	.	.	-5%	.	-10%	-2%	-7%	.
COc1cccc(C2Nc3ccccc3-c3nnc(SCc4ccccc4)nc3O2)c1OC (stereo not given)	3%[46.1 µM]	-0.6%	-3%	10%[46.1 µM]	.	.	.	-24%

High-throughput results (PubChem)
